From PubChem BioAssay
PMP22 txn prim: PMP22 gene transcription modulation; S16 Pmp22-F2sN Schwann cells (luciferase reporters placed in the Pmp22 gene), FLuc/NLuc coincidence luminescence, 24 h; Potency, µM (titrated, usually from 57.5 µM), for the others: at the highest dose activity change, negative = inhibition, most hits filed as inhibitors; actives 2% (n = 43,000); AID 1508649; active = clear falling dose curves in both reporters; inconclusive = both reporters move, but less clearly or upward; inactive = either reporter flat; the % is the NLuc reporter signal; also: % is scaled to controls: 0 for no effect and ±100 for the full control effect; some results filed as inactive show a strong effect at the top dose
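Transcriptional readout in edited S16(c9) cells: two luciferases reported from the Pmp22 locus, measured in turn after 24 h compound incubation.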
HTT promoter inh: inhibitors of huntingtin promoter activity. HEK293 HTT promoter firefly luciferase reporter (activity 0% = vehicle and -100% = no light), 24 h. Potency, µM (highest dose often 57.5 µM), without a hit: top-dose activity change, negative = inhibition, usual class: inhibitors. actives 0.93% (n = 48,000); active = well fitted inhibition curve with a large enough effect; inconclusive = small, poorly fitted or top-dose-only effect; inactive = no such curve, though single readings can be large or run the other way; also: nearly all actives have a fitted effect of over 50% in size
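Firefly luciferase signal from promoter-reporter HEK293 cells was scaled between vehicle (0%) and zero RLU (-100%). Compounds were tested at final concentrations of up to 57.5 uM over 24 h at 37 degrees C. PTC124 at 50 uM final served as control inhibitor.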
* hit, by the source's call; ? = inconclusive; / = not tested or not shown; [ ] = another dose, or the depositor's remark. Potency is read from the fitted curve at half-maximal effect.

SMILES	PMP22 txn prim	HTT promoter inh
O=C(Nc1ccc(Oc2ccccc2)cc1)c1ccc(F)c(S(=O)(=O)N2CCN(c3ccccc3F)CC2)c1	-1.0%	2µM*
COc1ccc2[nH]c(=O)c(CN(C(=O)c3cccc(Cl)c3)c3ccccc3OC)cc2c1	-12.5%	-18.5%
CCC(C)NC(=O)CCSc1nc(-c2ccc3c(c2)OCO3)cc(C(F)(F)F)n1 (stereo unspecified)	-22.2%	-34.7%
CCCCN(CCCC)CCNC(=O)c1cn(C)c2ccc(S(=O)(=O)N3CCCC3)cc2c1=O	-18.3%	-1.7%
COc1ccc(/C=C/C(=O)Nc2sc(C)c(C)c2C(=O)O)cc1	-2.4%	-1.2%
COc1cc(OC)c(NC(=O)Nc2c(C)n(C)n(-c3ccccc3)c2=O)cc1Cl	4.2%	-22.1%
COc1cccc(-n2ccn(CC(=O)c3ccc(F)cc3)c(=O)c2=O)c1	-4.0%	-18.1%
CCOC(=O)C1=C(C)NC(C)=C(C(=O)OCC)C1c1ccccc1/C=C/C(=O)OC(C)(C)C	/	-23.9%
CCN(CC)CCN(C(=O)c1ccco1)c1nc2ccc(Cl)cc2s1	?	1.7%
CCOc1ccc(C(=O)Nc2ccc3oc(-c4ccc(Br)cc4)nc3c2)cc1	7.1%	-7.1%
O=C(Cn1c(=O)c(C(F)(F)F)nc2ccccc21)Nc1ccc(Br)cc1F	-24.1%	?
CCOc1cc(C(=O)OCc2cc(=O)n3c(C)csc3n2)cc(OCC)c1OCC	4.5%	-12.2%
COc1cc2c(=O)n(CCC(=O)NCC3CCCO3)c(=O)n(CC(=O)Nc3c(C)cccc3C)c2cc1OC (stereo unspecified)	-3.2%	-10.9%
COc1ccc2oc(=O)c(C(=O)NCCc3c(C)[nH]c4ccc(F)cc34)cc2c1	-2.6%	-2.2%
COc1cccc(CNC(=O)c2cc3c(=O)oc4ccc(C)cc4c3s2)c1	?	0.6%
O=C1CC(c2nnc(Cc3c(F)cccc3Cl)o2)CN1c1ccccc1 (stereo unspecified)	6.7%	-19.5%
O=C(Nc1c(C(=O)N2CCN(c3ccccc3)CC2)oc2ccccc12)c1ccccc1F	8.2%	?
CC1=C(c2ccc(C)cc2)S(=O)(=O)N(Cc2ccc(C(=O)Nc3ccc(C)c(F)c3)cc2)C1=O	0.7%	?
Cc1cccc(NC(=O)CSc2nc(-c3cccs3)cc(C(F)(F)F)c2C#N)c1C	1.0%	-14.5%
Cc1cc(C)c2c(CC(=O)N3CCN(c4cccc(Cl)c4)CC3)coc2c1	6.2%	-13.5%
COc1ccccc1N1CCN(c2ncccc2-c2nc(-c3ccc(Cl)cc3)no2)CC1	-1.7%	21.7%
O=C(c1cc(-c2ccc(Br)cc2)n[nH]1)N1CCN(S(=O)(=O)c2ccc(Br)s2)CC1	?	-29.3%
Cc1ccc(NC(=O)Cn2cc3c(n2)CCCC3)c(Cl)c1	-12.1%	-0.9%
O=C(NCCc1ccccc1)c1ccc2c(c1)N(Cc1ccccc1)C(=O)c1ccccc1S2(=O)=O	-19.4%	?
CNS(=O)(=O)c1ccc(NC(=O)c2cnn3c(C(F)F)cc(-c4ccccc4)nc23)cc1	?	-2.5%

Sorted by the number under HTT promoter inh (smallest number first): 3 from the list above.
compound,HTT promoter inh
COc1ccc2[nH]c(=O)c(CN(C(=O)c3cccc(Cl)c3)c3ccccc3OC)cc2c1,-18.5%
COc1ccc2oc(=O)c(C(=O)NCCc3c(C)[nH]c4ccc(F)cc34)cc2c1,-2.2%
CCCCN(CCCC)CCNC(=O)c1cn(C)c2ccc(S(=O)(=O)N3CCCC3)cc2c1=O,-1.7%

The list continues.
SMILES	PMP22 txn prim	HTT promoter inh
Clc1ccc2ncc(-c3cccc(NC4CNC4)n3)n2c1	/	-24.6%
COc1ccc(C(=O)NCC(c2cccnc2)N2CCc3ccccc32)cc1OC (stereo unspecified)	-9.5%	-26.4%
O=C1CCc2cc(S(=O)(=O)NCc3ccccc3Cl)cc3c2N1CC3	-24.6%	-4.2%
CCN(CC)c1ccc2cc(-c3nc(-c4ccc(Cl)cc4Cl)cs3)c(=O)oc2c1	-0.4%	-8.0%
COc1ccc(-c2cn3c(n2)sc2cc(C(=O)NCc4ccccc4OC)ccc23)cc1	-0.9%	6.5%
COc1ccc(OC)c(NC(=O)c2c(NCc3cccs3)sc3c2CCCC3)c1	?	-22.6%
CCc1ccc(C2c3c(-c4ccccc4)n[nH]c3C(=O)N2c2ccc(C(=O)O)cc2)cc1 (stereo unspecified)	2.1%	-15.7%
CCN(CC)CCOc1ccc(/C(=C(\Cl)c2ccccc2)c2ccccc2)cc1	/	-21.1%
COc1ccc(C(=O)Nc2ccc(-c3nc4ccccc4s3)c(Cl)c2)cc1Cl	?	6.4%
CC(C)C[C@H](CC(=O)O)C(=O)N[C@@H](Cc1c[nH]c2ccccc12)C(=O)N[C@@H](C)c1ccccc1	/	-0.8%
COc1ccccc1-c1c(C)nn2c(N3CCN(c4ccc(Cl)cc4)CC3)cc(C)nc12	-23.4%	-9.4%
Cc1ccc(Cl)cc1NC(=O)c1csnn1	-7.1%	-11.0%
O=C(CSc1nc2c(oc3ccccc32)c(=O)n1-c1ccccc1)Nc1ccc(F)c(Cl)c1	?	-16.9%
CS(=O)(=O)c1ccc2nc(NC(=O)CS(=O)(=O)c3ccc(Cl)cc3)sc2c1	-14.4%	-22.3%
COc1cccc(CNC(=O)CCc2c(C)nc3c(c(C)nn3-c3ccc(C)c(C)c3)c2C)c1	?	?
COc1ccc(NC(=O)c2cc(-c3ccccc3F)no2)cc1	-11.1%	1.2%
Cc1nn(CC(=O)NCc2ccco2)c(=O)c2nn(-c3ccccc3)c(C)c12	-5.5%	-7.6%
CC1=C(c2ccc(Cl)cc2)S(=O)(=O)N=C1N1CCC(C(=O)NCc2ccccc2F)CC1	-24.6%	-21.0%
CCOc1ccc(CNC(=O)c2ccc3c(c2)sc2nc(-c4ccccc4)cn23)cc1	-11.1%	28.7%
CC(C)C(=O)Nc1nnc(S(=O)(=O)N2CCc3ccccc32)s1	16.3%	-20.0%
CCN(c1ccccc1)c1nnc(NC(=O)Nc2ccc(C)cc2)s1	?	2.0%
CCc1ccc(-c2cc(C)no2)cc1S(=O)(=O)N1CCN(c2cccc(Cl)c2)CC1	-21.6%	?
CCCCn1c(=O)c2oc3ccccc3c2n(CC(=O)Nc2cccc(Cl)c2C)c1=O	?	6.2%
O=C(Cn1ncc2c3ccccc3n(Cc3cccc(Cl)c3)c2c1=O)Nc1ccc(F)cc1F	?	-10.3%
CCc1ccc(-n2c(=O)c3ccccc3n(CC(=O)NCCc3ccc(OC)c(OC)c3)c2=O)cc1	22.5%	-13.7%

Complete entries, quoted from the list:
CCOc1ccc(CNC(=O)c2ccc3c(c2)sc2nc(-c4ccccc4)cn23)cc1 is listed with PMP22 txn prim: -11.1%; HTT promoter inh: 28.7%
Cc1ccc(Cl)cc1NC(=O)c1csnn1 is listed with PMP22 txn prim: -7.1%; HTT promoter inh: -11.0%
CCc1ccc(-n2c(=O)c3ccccc3n(CC(=O)NCCc3ccc(OC)c(OC)c3)c2=O)cc1 is listed with PMP22 txn prim: 22.5%; HTT promoter inh: -13.7%

(list continues)
SMILES	PMP22 txn prim	HTT promoter inh
Cc1oc(C)c2c(=O)cc(-c3ccc4c(c3)OCO4)cc(OC(=O)c3cccc(Cl)c3)c12	?	?
Cc1cccc(Cn2c(SCc3ccc(C(=O)NCc4ccccc4)cc3)nc3cccnc32)c1	?	?
Cc1ccc(NS(=O)(=O)c2ccc(-n3cccn3)cc2)cc1Cl	?	?
CCc1ccccc1-n1c2c(cc(-c3nc(-c4ccc(Cl)cc4)cs3)c1=O)C(=O)CC(C)(C)C2	9.9%	-13.2%
CCOC(=O)c1[nH]c(C)c(CCC(=O)NCc2cccc(C)c2)c1C	-30.5%	-3.2%
Cc1cccc(OCC(=O)Nc2ccc3c(c2)nc(CN2CCCCC2)n3C)c1	?	?
CCn1c2c(c(=O)n3ncc(C(=O)Nc4ccc(F)c(Cl)c4)c13)CN(Cc1ccc(OC)cc1)CC2	-19.2%	-12.7%
CC1CCc2onc(C(=O)N3CCN(c4ccc(Cl)cc4)CC3)c2C1 (stereo unspecified)	-20.5%	-12.9%
O=C(Cn1ncc2ccc(Cl)cc21)NCc1ccc(F)cc1	-16.2%	12.0%
CCOc1ccc(-c2nnc(SCC(=O)NC3CCCC3)nc2-c2ccc(OCC)c(OC)c2)cc1OC	-11.0%	4.8%
COC(=O)c1c(Oc2ccc(C(C)=O)cc2)nnc(-c2ccccc2)c1-c1ccccc1	?	?
CC(=O)c1ccc(NC(=O)c2noc3c2CSc2ccccc2-3)cc1	-1.8%	22.0%
CC1N=C2c3ccccc3N=C(SCC(=O)NCc3ccc(Cl)cc3)N2C1=O (stereo unspecified)	-15.6%	-24.1%
O=C(CSc1nc2ccsc2c(=O)n1Cc1ccc(F)cc1)NCc1ccc(Cl)cc1	?	-6.9%
CCOc1ccc(OCC)c(NC(=O)C2CCCN(S(=O)(=O)c3ccc4c(c3)oc(=O)n4C)C2)c1 (stereo unspecified)	-11.4%	-5.9%
CC(=O)c1cccc(NC(=O)Cn2nc(C)n3cccc3c2=O)c1	-14.8%	-12.3%
CCOc1ccccc1-c1noc(CCCC(=O)Nc2cccc(C(F)(F)F)c2)n1	-40.4%	-32.2%
CC(C)Oc1ccc(CNC(=O)c2sc3ncccc3c2-n2cccc2)cc1	-62.3%	?
CCc1ccc(NC(=O)CCc2c(C)nc3nc(-c4cc(OC)cc(OC)c4)nn3c2C)cc1	4.3%	-14.1%
CCOCCCNC(=O)C(c1ccccc1)N1Cc2ccccc2C1=O (stereo unspecified)	1.2%	-8.7%
O=C(C=Cc1cccnc1)NCCCCC1CCN(C(=O)c2ccccc2)CC1	/	-14.6%
O=C(Nc1cccc(C(=O)N2CCN(c3ccccc3F)CC2)c1)c1nsc2ccccc12	?	-6.6%
CC(C)c1nc2ccc(C(=O)NCCCN3CCN(c4ccc(F)cc4)CC3)cc2o1	5.6%	4.4%
CCN(Cc1ccccc1)C(=O)CN1C(=O)COc2ccc(S(=O)(=O)N3CCOCC3)cc21	-3.1%	0.0%
Cc1ccc(NC(=O)c2cc(S(=O)(=O)N(C)C3CCCCC3)ccc2F)cc1C	-30.2%	?

Other entries:
SMILES	PMP22 txn prim	HTT promoter inh
COc1ccc(-c2nsc(NC(=O)COc3ccc(C)c(C)c3)n2)cc1	-37.3%	7.3%
CCOc1ccc(CCNC(=O)c2cc3cccc4c3n2CCS4)cc1	-28.4%	?
COc1cccc(CNC(=O)c2cc(C)nc3c2c(C)nn3-c2ccc(C)cc2)c1	?	?
CCc1cccc(C)c1NC(=O)c1ccc2c(c1)CCN2S(=O)(=O)CC	-15.9%	?
CCOC(=O)c1cccc(NC(=O)Cc2ccc(NC(=O)N3CCCCc4ccccc43)cc2)c1	?	-15.5%
CCCCOc1ccc(CNC(=O)C2COc3ccc(OC)cc3C2)cc1 (stereo unspecified)	5.4%	-10.4%
CCOc1ccccc1NC(=O)C1=C(C)Nc2ncnn2C1c1ccco1 (stereo unspecified)	-27.7%	-8.6%
Cc1nn(C(C)C(=O)NCCc2ccccc2)c(=O)c2c1sc1ccccc12 (stereo unspecified)	-1.1%	-23.9%
Cc1nc2cc(C(=O)NC3CCCCCC3)ccc2n1-c1ccc(Br)cc1	-27.3%	?
Cc1cc(C)cc(-n2ccn(CC(=O)Nc3ccccc3C(F)(F)F)c(=O)c2=O)c1	4.3%	-12.4%
COc1ccc(C(=O)NCc2ccc3c(c2)CCN3C(=O)c2ccc(C)cc2)cc1	?	?
CCc1cccc(C)c1NS(=O)(=O)c1c(C(=O)N2CCC(C)CC2)c(C)n(C)c1C	-24.7%	-26.2%
COc1ccc(S(=O)(=O)c2nnn(-c3cccc(Cl)c3)c2N)cc1	-22.1%	?
CC(=O)N1CCC2(CC1)OC(=O)C(C)=C2C(=O)Nc1cccc(Cl)c1C	0.9%	-6.1%
Cc1ccc(-c2nnc(Nc3ccccc3)c3ccccc23)cc1S(=O)(=O)N1CCN(C)CC1	-29.2%	2.0%[11.5 µM]
CCc1ccc(NCc2cc3ccc(OC)cc3n(CC(=O)Nc3ccc(F)cc3F)c2=O)cc1	?	-28.6%
CC1=C(C(=O)Nc2ccccc2C)C(c2cccs2)n2nc(SCc3cc(C)ccc3C)nc2N1 (stereo unspecified)	-46.5%	-7.8%
Cc1ccc(S(=O)(=O)N2CCc3cc(C(=O)Nc4ccc(Cl)cc4C)ccc32)cc1	?	-7.1%
Cc1cc2n(n1)CCC(=O)N2Cc1ccc(C(=O)Nc2cc(Cl)ccc2C)cc1	?	-27.2%
CC1CCN(C(=O)CSc2n[nH]c(-c3ccc(F)cc3)n2)CC1	-14.6%	-20.8%
COC(=O)c1cccc(CN2C(=O)SC(Nc3ccc(Cl)cc3)C2=O)c1 (stereo unspecified)	?	-17.8%
CC1(C(=O)NC2CCCCC2)Cc2ccccc2C(=O)N1Cc1ccccc1Cl (stereo unspecified)	1.8%	?
COc1ccc(-c2cc(C(F)(F)F)n3nc(C(=O)OC(C)C)cc3n2)cc1	-9.8%	-15.6%
COc1ccc(C(=O)OCc2cc(=O)n3nc(C4CC4)sc3n2)cc1OC	8.0%	-21.5%
O=C(Nc1cccc(C(F)(F)F)c1)C1CCN(S(=O)(=O)c2cccc3nsnc23)CC1	-33.2%	?
Nc1c(C(=O)Nc2ccccc2F)sc2nc3c(cc12)CCCCCC3	?	8.1%

Rows were taken by chance. Share with any hit: about 2.7%.
